MT1-MMP promoter = inhibitors of MT1-MMP promoter transcription, cell-based, luciferase reporter, luminescence (AID 618); 87,000 tested, 0.62% active; MT1-MMP promoter luciferase reporter cells, luminescence; calls from a first round at 10 µM; hits with a dose series show EC50 in µM;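 active = over half of the reporter light lost at 10 µM or EC50 under 50 µM; inactive = the rest and hits that failed the dose series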;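 also: actives suppress MT1-MMP promoter-driven transcription so potencies describe inhibitors; HT1080 fibrosarcoma cells; overnight exposure; toxic or luciferase-blocking compounds were not removed from the actives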
Hsc70 = Hsc70 inhibitors, probe displacement, primary screen, biochemical, fluorescence polarization (AID 568); one-dose displacement, % at 20 µM; IC50 in µM for titrated hits; 83,000 tested, under 10 active; Heat shock cognate 71 kDa protein (Homo sapiens); Hsc70 fluorescence polarization, probe displacement; higher % means a stronger effect; strong numbers were not always called active;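 active = displacement above 50% without optical interference and an IC50 on retest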;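 also: ATPase domain with a fluorescein-tagged ATP probe; 0% = vehicle and 100% = excess ADP; read after one hour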
WNV NS2B-NS3 inh = inhibitors of WNV NS2B-NS3 protease, primary screen, biochemical, fluorogenic substrate; Genome polyprotein (West Nile virus), P06935; fluorogenic substrate Ex360/Em465; hits give low values; z-score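 (tested at a level between 10 and 100 µM)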; 65,000 tested, 0.18% active;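 active = z-score at -3 or under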;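 also: score is relative to mean and spread of the compound wells of a plate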
Target sequence (P06935 1371-1501 limits assumed): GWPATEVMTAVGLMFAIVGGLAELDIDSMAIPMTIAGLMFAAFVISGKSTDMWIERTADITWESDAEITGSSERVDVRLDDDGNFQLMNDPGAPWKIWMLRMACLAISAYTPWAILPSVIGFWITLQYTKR
Target sequence (P06935 1502-1679 limits assumed): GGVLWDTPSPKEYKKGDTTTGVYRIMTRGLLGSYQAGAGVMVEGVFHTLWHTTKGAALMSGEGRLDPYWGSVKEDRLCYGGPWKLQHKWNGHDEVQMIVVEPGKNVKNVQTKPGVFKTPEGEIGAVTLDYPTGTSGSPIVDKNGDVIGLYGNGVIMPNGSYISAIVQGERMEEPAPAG
* = called active by the depositor; i = inactive; . = no result given. This is a subset, so the mix of outcomes need not match the whole.

SMILES	MT1-MMP promoter	Hsc70	WNV NS2B-NS3 inh
Cc1cccc(N(CC(=O)N2CCOCC2)S(C)(=O)=O)c1	i	6.0%	.
CCOC(=O)Cn1c(=O)oc2cc(S(=O)(=O)Nc3ccc(N(CC)CC)cc3C)ccc21	i	-4.8%	0.17
O=C(NCc1cccnc1)c1ccc(Cl)c(Cl)c1	i	4.2%	0.44
COc1ccccc1C(=O)CSc1n[nH]c(N)n1	i	1.1%	.
CCOc1ccc(C2CC(c3cccc(Cl)c3)n3nc(N)nc3N2)cc1 (stereo unspecified)	i	4.0%	-0.25
CC(C)Oc1ccc(C2c3c(oc4ccccc4c3=O)C(=O)N2CCCN2CCOCC2)cc1 (stereo unspecified)	i	-0.2%	-0.23
CCN(CC)c1ccc(C2N(C(=O)N3CCOCC3)CCN2S(=O)(=O)c2ccc(C)cc2)cc1 (stereo unspecified)	i	0.6%	.
CCCS/C(N)=N/N=C/c1ccccc1O	i	1.5%	.
O=C1CN(C(=O)CCN2CCOCC2)C(c2ccccc2)c2cc(Br)ccc2N1 (stereo unspecified)	i	-7.8%	-0.45
O=C(CC1NC(=O)NC1=O)Nc1ccccc1 (stereo unspecified)	i	-4.8%	.
CC#CCNCc1ccccc1	i	4.1%	.
Clc1cc(NCc2cccs2)ccc1N1CCOCC1	i	1.8%	-0.18
COc1cc2c(cc1OC)C1=C(C#N)CN(CC(=O)O)CN1CC2	i	-3.9%	0.21
CCN=C(NCC)SC1CC(=O)N(c2cccc(OC)c2)C1=O (stereo unspecified)	i	-3.8%	-0.88
COc1ccc(CCNC(=O)C2CCN(c3nn4c(=O)cc(C)nc4s3)CC2)cc1OC	i	-2.0%	-1.3
CC(=O)N1CCc2cc(S(=O)(=O)N3c4ccccc4CC3C)ccc21 (stereo unspecified)	i	-0.3%	.
O=C(COc1ccc(Br)cc1CO)Nc1ccc(F)cc1	i	3.8%	-0.45
Cc1ccc(-c2noc(-c3ccccc3C(=O)N3CCCC3)n2)cc1	i	0.9%	1.29
COc1ccc(-n2c(C)nc(=O)c(-c3ccccc3)c2C)cc1	i	3.0%	.
CSc1nc2ccc(S(=O)(=O)N3CCOCC3)cc2s1	i	1.0%	0.02
Cc1cc(NC(=O)CSc2ccc3nnc(-c4ccc(F)cc4)n3n2)no1	i	0.0%	-0.42
CCOC(=O)c1c(C)n(C)c2ccc(OC)c(NC(=O)CN3CCC4(CC3)OCCO4)c12	i	4.2%	0.41
COc1ccc2cc(S(=O)(=O)N3CCN(C)CC3)ccc2c1	i	-1.1%	1.26
O=C(NC1CCCCC1)N(Cc1ccc(F)cc1)Cc1nc2ccccc2c(=O)[nH]1	i	7.4%	-0.52
COc1cccc(-c2nc(-c3ccccc3)no2)c1	i	2.7%	-0.03
O=C(NCC1CCCO1)C1CCN(S(=O)(=O)Cc2ccccc2)CC1 (stereo unspecified)	i	5.0%	1.11
O=C(c1cccc(C(=O)N2CCN(c3ccc(F)cc3)CC2)c1)N1CCN(c2ccc(F)cc2)CC1	i	-4.3%	-1.03
CCCCN(C)CCNC(=O)Cn1c(=O)sc2ccccc21	i	3.5%	-1.54
CCS(=O)(=O)c1nc2ccccc2n1Cc1ccccc1Cl	i	2.2%	1.14
O=C(CSc1nnc(CN2CCOCC2)n1-c1ccc(Cl)cc1)Nc1ccc2c(c1)OCO2	i	0.8%	.
COc1cccc(C2=NOC(C(=O)Nc3cccc(C(C)=O)c3)C2)c1 (stereo unspecified)	i	6.5%	-0.96
O=C(CSCc1ccc(F)cc1)NC1CCCC1	i	-13.6%	-0.3
COc1ccccc1Nc1nc(N)nc(CSCCO)n1	i	0.9%	-0.04
CCOC(=O)Cn1c2c(c(=N)c3c1CCC3)CCC2	i	-1.6%	-0.32
O=C(COC(=O)c1cccs1)c1ccc2ccccc2c1	i	0.5%	.
O=C(NCCCN1CCN(c2cccc(Cl)c2)CC1)c1cccc(N2CCCC2=O)c1	i	-4.1%	1.03
COc1cc(NC(=O)C2CC2)c(C(=O)O)cc1OC	i	2.1%	.
O=C(Nc1ccccc1)N1CCC(c2ccccc2)C1 (stereo unspecified)	i	9.8%	-0.5
CCOC(=O)c1oc2ccccc2c1NC(=O)COc1ccc(F)cc1	i	-1.0%	0.72
Cc1ccc(C(CC(=O)N2CCCC2)c2ccccc2)c(O)c1C (stereo unspecified)	i	-0.7%	-0.92
OCc1ccccc1N=c1ssnc1Cl	i	-4.0%	0.29
COc1ccccc1OCC(=O)NCCc1nc2ccccc2[nH]1	i	-1.3%	-0.08
Cc1cccc2cc(CN(Cc3ccc(F)cc3)C(=O)N3CCOCC3)c(=O)[nH]c12	i	3.5%	.
Cc1nnc(NC(=O)c2ccccc2F)s1	i	-6.8%	-0.59
O=C(CSc1nc2ccccc2c(=O)n1Cc1ccccc1)NCc1ccco1	i	2.6%	.
CCC(=O)Nc1ccc(NC(=O)CSc2nnc(C(C)C)n2C)cc1	i	1.0%	2.37
CC(C)(C)C(=O)Nc1nnc(CSCc2ccccc2F)s1	i	0.7%	.
CC(C)CC(NC(=O)c1ccco1)C(=O)Nc1ccc2c(c1)OCCO2 (stereo unspecified)	i	2.6%	-1.88

Looked up by structure from the list above, 2 records:
SMILES	MT1-MMP promoter	Hsc70	WNV NS2B-NS3 inh
COc1ccccc1Nc1nc(N)nc(CSCCO)n1	i	0.9%	-0.04
O=C(Nc1ccccc1)N1CCC(c2ccccc2)C1 (stereo unspecified)	i	9.8%	-0.5

Profiles, looked up by structure. Order of screens: MT1-MMP promoter, Hsc70, WNV NS2B-NS3 inh
Cc1nnc(NC(=O)c2ccccc2F)s1 across the screens: i, -6.8%, -0.59
CC(C)(C)C(=O)Nc1nnc(CSCc2ccccc2F)s1 across the screens: i, 0.7%, .
Cc1cccc2cc(CN(Cc3ccc(F)cc3)C(=O)N3CCOCC3)c(=O)[nH]c12 across the screens: i, 3.5%, .
CCOC(=O)c1oc2ccccc2c1NC(=O)COc1ccc(F)cc1 across the screens: i, -1.0%, 0.72

The results go on:
SMILES	MT1-MMP promoter	Hsc70	WNV NS2B-NS3 inh
CC1CCc2nn(CC(=O)NC3CCCC(C)C3C)cc2C1 (stereo unspecified)	i	4.9%	-0.97
Brc1ccc(-c2ncc(-c3ccccc3)cn2)cc1	i	-4.0%	.
CC(C)CCn1cnc2c(c1=O)c1nc3ccccc3nc1n2Cc1ccc2c(c1)OCO2	i	0.3%	-0.54
O=c1c2ccccc2nc(N2CCN(c3ccccc3)CC2)n1Cc1ccccc1	i	2.2%	-0.88
CCOCCn1c(SCc2ccccc2)nc2c1c(=O)[nH]c(=O)n2C	i	5.2%	-1.05
COc1ccc(CCNC(=O)C2CCN(S(=O)(=O)N3CCCCC3)CC2)cc1OC	i	-1.6%	-0.2
CCCn1nc(Oc2nc(SC)nc(N(C)C)n2)ccc1=O	i	0.0%	-0.1
O=C(O)c1ccc(NS(=O)(=O)c2cccc3cccnc23)cc1	i	-1.2%	0.01
Cc1c(S(=O)(=O)N2CCN(C(=O)c3ccco3)CC2)c(=O)n(C)c(=O)n1C	i	-0.6%	-0.74
Cc1cccc(NC(=O)c2cc(NC(=O)CCCC(=O)O)ccc2Cl)n1	i	-4.3%	.
c1ccc2c(NC3=NCCCCS3)cccc2c1	i	-1.5%	.
CCOC(=O)NC1(Nc2ccc(Cl)cn2)Oc2ccccc2O1	i	-2.6%	0.48
COc1cc2c(=O)n(Cc3ccccc3)c(=O)n(CC(=O)C(C)(C)C)c2cc1OC	i	0.3%	-0.88
O=C(Oc1cccc2c(OC(=O)N3CCOCC3)cccc12)N1CCOCC1	i	-7.4%	0.36
Clc1ccc(C2Nc3ccccc3-n3cccc32)cc1 (stereo unspecified)	i	-3.5%	0.99
CCc1c(C)c2c(C)nn(-c3ccccc3)c2[nH]c1=O	i	3.2%	-0.68
Cc1cc2cc3c(cc2nc1SCC(=O)O)OCCO3	i	2.9%	0.1
Cc1[nH]n(C(C)(C)C)c(=O)c1Sc1ccc(Cl)cc1	i	-3.8%	0.38
CCCn1nc(NC(=O)c2ccncc2)c2cc3ccccc3nc21	i	-2.1%	-0.38
Cc1cnc(NC(=O)CSc2ncc(-c3ccccc3)n2Cc2ccco2)s1	i	-0.7%	0.5
CCOC(=O)C1CN(c2cc3c(cc2F)c(=O)c(C(=O)O)cn3CC)OC1C(=O)OCC (stereo unspecified)	i	-4.9%	0.00214
COc1ccc(N2CCN(S(=O)(=O)c3ccc(Cl)c(C(F)(F)F)c3)CC2)cc1	i	-4.4%	-0.19
CCn1nnc(NC(=O)C(C)Oc2ccc(Cl)cc2Cl)n1 (stereo unspecified)	i	-0.6%	-0.32
CCN(CC)Cc1cc(C(C)=O)ccc1OCC(C)C	i	6.2%	-0.00289
CC(C)c1ccc(-c2noc(C3CCCN(S(C)(=O)=O)C3)n2)cc1 (stereo unspecified)	i	-0.6%	.
N#C/C(=C\c1ccc[nH]1)C(=O)NC1CC1	i	5.1%	.
CCOc1cc(S(=O)(=O)NCCN2CCOCC2)c(C)cc1C	i	5.6%	1.87
C=CCNC(=O)C(C)N1C(=O)c2ccccc2C1=O (stereo unspecified)	i	-4.1%	1.02
CCCCCn1c(CN2CCN(CCO)CC2)nc2c1c(=O)n(C)c(=O)n2C	i	4.1%	-2.73
CCCc1[nH][nH]c(=O)c1C(c1ccccc1)C(C#N)C#N (stereo unspecified)	i	3.9%	0.07
COc1ccc(CCNC(=O)C2CCCN2C(=O)Nc2cccc(C(C)=O)c2)cc1OC (stereo unspecified)	i	4.9%	1.1
CCc1nnc(NC(=O)C(C)N2C(=O)C3C4C=CC(C4)C3C2=O)s1 (stereo unspecified)	i	-4.1%	0.19
Cc1onc(-c2ccccc2)c1C(=O)Nc1sc2c(c1C(N)=O)CCC2	i	-19.5%	-0.33
O=C(CSc1nc2ccccc2c(=O)n1Cc1ccc(C(=O)NC2CC2)cc1)NCc1ccco1	i	6.4%	-0.59
COC(=O)c1c(C)n(-c2ccccc2)c2ccc(O)cc12	i	-1.3%	-1.27
O=C(NCCCN1CCOCC1)c1cc2cc(Cl)cc(Cl)c2oc1=O	i	4.5%	-0.45

Structures shown so far with a cyano group, in the order listed:
SMILES	MT1-MMP promoter	Hsc70	WNV NS2B-NS3 inh
COc1cc2c(cc1OC)C1=C(C#N)CN(CC(=O)O)CN1CC2	i	-3.9%	0.21
N#C/C(=C\c1ccc[nH]1)C(=O)NC1CC1	i	5.1%	.
CCCc1[nH][nH]c(=O)c1C(c1ccccc1)C(C#N)C#N (stereo unspecified)	i	3.9%	0.07

Other results follow.
SMILES	MT1-MMP promoter	Hsc70	WNV NS2B-NS3 inh
Nc1c(S(=O)(=O)c2cccs2)c2nc3ccccc3nc2n1Cc1cccs1	i	-5.2%	-0.15
COc1cc(C)c(Br)cc1S(=O)(=O)N1CCOCC1	i	2.9%	-1.37
Cc1noc(C)c1CSc1nc2sc3c(c2c(=O)n1C)CCCC3	i	0.5%	.
COCCCNc1ncnc2c1cnn2-c1ccc(C)cc1C	i	-1.3%	2.04
CCOCC(=O)Nc1ccc(S(=O)(=O)NCCc2ccccc2)cc1	i	-2.0%	-0.76
Cc1csc(Sc2nc3c(c(=O)[nH]c(=O)n3C)n2CCCc2ccccc2)n1	i	-7.4%	-0.31
CCOC(=O)Cc1csc(NC(=O)c2ccc(OC)c(OC)c2)n1	i	-19.5%	.
CNC(=O)c1cc2cc(Cl)cc(OC)c2oc1=O	i	-1.5%	0.08
O=c1c(/C=N/O)c(Nc2ccccc2)nc2ccccn12	i	1.2%	1.49
N#Cc1c2c(c(=S)n(-c3ccccc3)c1N)CCCC2	i	10.9%	-0.28
CCNc1nc(NC(C)C)nc(NS(=O)(=O)c2ccc(N)cc2)n1	i	2.2%	.
O=C(c1coc2ccc(O)c(CN3CCOCC3)c12)C1CC1	i	2.6%	-0.84
CCSc1nnc(NC(=O)c2cccs2)s1	i	6.2%	1.1
O=C(CCN(CCO)Cc1ccccc1)Nc1ccc(Br)cc1	i	4.0%	-0.38
COc1cc2[nH]c(=S)n(CCN3CCCCC3C)c(=O)c2cc1OC (stereo unspecified)	i	-4.2%	-0.78
O=C(NCc1ccc(F)cc1)c1cnc2n(c1=O)CCS2	i	2.5%	-1.68
CCn1c(SCc2ccc(C(=O)OC)o2)nnc1-c1c[nH]c2ccccc12	i	4.5%	0.84
CCN1CCN(CC(=O)N2c3ccccc3CC2C)CC1 (stereo unspecified)	i	2.5%	.
CCC(Sc1ncccn1)C(=O)Nc1cc(C)on1 (stereo unspecified)	i	-6.3%	.
CCOC(=O)C1=C[C@]2(CC)CCCN3CCc4c(n1c1ccccc41)[C@@H]32	i	6.8%	-1.97
CCn1c2ccccc2c2nnc(SCC(=O)Nc3ncccn3)nc21	i	5.9%	1.02
O=C(Cn1ncc2c(=O)oc3ccccc3c21)Nc1nc2ccccc2s1	i	-2.7%	0.21
CCCCSc1nnc(-c2ccc(NC(C)=O)cc2)n1C	i	-2.2%	-0.08
Cc1ccc(-n2ncc3c(=O)[nH]c(SCC(=O)N4CCCc5ccccc54)nc32)cc1	i	-5.3%	-0.76
CCc1ccc(Cn2nnc(C(=O)NCc3ccccc3OC)c2N)cc1	i	2.0%	1.33
COCCCn1c(-c2ccsc2)nc2c1c(=O)[nH]c(=O)n2Cc1ccccc1	i	-5.8%	0.59

Bioassay records deposited in PubChem by several laboratories.
